# Bioassay records from PubChem.
# LANA-H2A inh = blocks KSHV LANA binding to histone H2A/H2B. 0.6% of 320,000 active. inhibition, % (test concentration not listed). cell-free LANA-H2A/H2B peptide, fluorescence polarization. AID 2629; in the data active = inhibition mostly above about 10%, no sharp cut-off; inactive = mostly below about 6.7%;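 note: stock transfer was 7.5 nL into about 10 µL; 0% = median of vehicle wells and 100% = median of positive control wells; one replicate is shown; the record names a cut of 25% in any replicate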
# Ecoli growth = E. coli growth inhibition; OD600 absorbance (test concentration not listed); Escherichia coli growth, OD600, 23 h; active compounds read low; AID 1053175; 0.21% of 330,000 active;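 active = OD600 absorbance below the run mean of sample wells minus 3.6 SD, in any replicate, cut at about 0.56 in these data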;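 note: stock transfer was 300 nL into about 60 µL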
# HNF4A DNA FP = change in binding of human HNF4 alpha to DNA; P41235; HNF4a-FITC DNA binding, fluorescence polarization, 1 h; activity change, % at 10 µM; 0.3% of 360,000 active; AID 1224865; in the data active = activity change above about 30%, passing the limit was not always enough;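 note: controls were the assay level and a saturating level of protein; the project sought stronger binding though the title names inhibitors; some compounds called inactive have numbers as strong as hits; positive values seem to mean higher polarization but the record does not say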
# Target sequence (P41235 whole entry, looked up): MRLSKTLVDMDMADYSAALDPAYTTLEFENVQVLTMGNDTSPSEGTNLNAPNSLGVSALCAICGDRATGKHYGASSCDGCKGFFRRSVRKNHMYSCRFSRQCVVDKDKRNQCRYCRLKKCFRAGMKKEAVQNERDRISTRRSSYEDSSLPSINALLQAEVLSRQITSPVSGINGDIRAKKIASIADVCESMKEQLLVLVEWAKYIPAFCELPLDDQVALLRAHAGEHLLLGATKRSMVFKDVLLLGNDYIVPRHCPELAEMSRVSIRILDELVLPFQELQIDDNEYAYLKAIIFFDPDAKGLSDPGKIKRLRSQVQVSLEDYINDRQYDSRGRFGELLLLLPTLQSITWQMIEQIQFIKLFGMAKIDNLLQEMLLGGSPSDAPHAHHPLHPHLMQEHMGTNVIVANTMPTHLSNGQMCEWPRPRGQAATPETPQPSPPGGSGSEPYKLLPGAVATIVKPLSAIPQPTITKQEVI
# ALR inh = human ALR oxidase inhibition via reduced H2O2 | inhibition, % (no concentration beside the values) | purified ALR, DTT oxidation, H2O2 HRP-luminol luminescence | AID 485317 | P55789 | 3.8% of 290,000 active;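 active = mean and each replicate at 75% or more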;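 note: stock transfer was 7.5 nL into about 7.5 µL; 0% = neutral wells and 100% = wells with inactivated enzyme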
# Target sequence (P55789 whole entry, looked up): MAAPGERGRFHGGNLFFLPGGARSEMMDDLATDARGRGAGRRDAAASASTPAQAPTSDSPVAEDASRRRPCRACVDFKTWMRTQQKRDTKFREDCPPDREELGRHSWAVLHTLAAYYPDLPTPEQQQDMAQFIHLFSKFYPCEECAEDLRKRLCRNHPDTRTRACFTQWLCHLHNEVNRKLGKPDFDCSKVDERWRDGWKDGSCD
# FGF22 binding = FGF22 (human) thermal shift binding; recombinant FGF22 thermal shift, SYPRO orange fluorescence; percent of sucrose octasulfate shift, DMSO zero; calls only at 9.99 µM; 1.5% of 340,000 active; Q9HCT0; AID 651658;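 active = melting point raised past a set limit in the mean and every replicate; three in four hits are not shown here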
# UCH37 inh = blocks the human deubiquitinase UCH37; Q9Y5K5; AID 588478; inhibition, % (no concentration beside the values); purified proteasome/UCH37, Ub-AMC cleavage fluorescence; 0.33% of 330,000 active;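 active = mean of two replicates above 20%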;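 note: 0% = compound-free wells with enzyme and 100% = wells lacking proteasome; stock transfer was 100 nL into about 20 µL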
# Target sequence (Q9Y5K5 whole entry, looked up): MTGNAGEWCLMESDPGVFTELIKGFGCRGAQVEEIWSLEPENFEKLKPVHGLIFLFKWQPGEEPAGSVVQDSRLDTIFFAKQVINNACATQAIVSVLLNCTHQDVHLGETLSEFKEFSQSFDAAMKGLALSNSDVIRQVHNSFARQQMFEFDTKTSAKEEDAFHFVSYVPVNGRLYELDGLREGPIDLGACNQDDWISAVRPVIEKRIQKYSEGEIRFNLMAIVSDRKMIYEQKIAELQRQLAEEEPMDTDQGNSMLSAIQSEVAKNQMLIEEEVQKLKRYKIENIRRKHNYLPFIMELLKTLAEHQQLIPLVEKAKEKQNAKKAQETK
#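 Reagent: Ub-AMC substrate; assay system: Proteasome-associated human UCH37 deubiquitinase; controls: no-proteasome and no-compound wells; read-out: % inhibition of Ub-AMC cleavage fluorescence; timing: 30 min preincubation with enzyme, 25 min cleavage at room temperature; signal: AMC fluorescence from Ub-AMC cleavage, excitation 355 nm, emission 460 nm; buffer or medium: Tris-HCl pH 7.4 plus ovalbumin, ATP-MgCl2, DTT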
# Beta2AR agonist = agonists of human beta-2 adrenergic receptor inducing internalization. P07550. Am2.2-beta2AR cells, FAP receptor internalization, flow cytometry; reference of the scale not given here. response, % (no concentration beside the values). 0.43% of 340,000 active;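 active = response above a set limit, near 3 SD of response in nonfluorescent compounds, cut at about 42% in these data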;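 note: stock transfer was 100 nL into about 11 µL; a reference agonist was the positive control; negative values mostly stem from fluorescent compounds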
# Numbers without * were called inactive; i = inactive; x = not tested or not shown; + = active, no number.
SMILES,LANA-H2A inh,Ecoli growth,HNF4A DNA FP,ALR inh,FGF22 binding,UCH37 inh,Beta2AR agonist
OC1CCCN(Cc2cccc3ccccc23)C1 (centres undefined),1.2,0.72,1.2,-12,x,4.2,2
N/C(Cc1ccc(Cl)cc1)=N\OC(=O)c1ccccc1,-4.2,0.67,-0.1,7,x,1.6,1
O=C(NNC(=O)C1CCN(S(=O)(=O)c2cccc(Cl)c2)CC1)C1CC1,-0.5,0.68,1.1,-9,i,0.7,0
Cc1nc2ccccn2c1C(=O)NNC(=O)Nc1ccccc1,-2.0,0.67,1.3,28,i,1.0,-5
CCn1nc(NC(=O)c2ccccc2)c2cc3cccc(C)c3nc21,-0.6,0.65,0.8,8,i,-95,9
CC(=O)NN1C(=O)c2ccc(Oc3ccc4c(c3)C(=O)N(NC(C)=O)C4=O)cc2C1=O,-0.1,0.72,x,11,x,0.8,x
O=C(Cn1nnc2ccccc21)Nc1ccccc1[N+](=O)[O-],3.6,0.72,3.2,x,i,5.1,-2
CCN1CCN(c2nc(C)c3c(n2)CC(C)CC3=O)CC1 (centres undefined),-3.4,0.73,-5.9,-3,x,1.7,8
CCOC(=O)N1CCC(NC(=O)C2CCCN(C(=O)c3cc4sccc4n3C)C2)CC1 (centres undefined),-4.0,0.74,0.2,1,i,1.1,-9
CCCCOc1ccc(C(=O)NCC(=O)OCC(=O)c2c(N)n(C)c(=O)n(C)c2=O)cc1,2.2,0.68,-4.2,-3,i,3.3,-1
O=C(NCc1ccccc1Cl)C1CCN(S(=O)(=O)N2CCOCC2)CC1,1.8,0.65,-0.4,-2,i,-0.1,-4
Brc1ccc(-c2nc(-c3ccncc3)no2)cc1,-2.3,0.69,-1.1,-4,i,6.0,-7
N#Cc1cc([N+](=O)[O-])ccc1NCCc1ccccn1,0.1,0.71,1.9,-16,i,8.6,-5
CCCCn1c(N)c(N(CCOC)C(=O)CSc2nnc(C)n2-c2ccc(OC)cc2)c(=O)[nH]c1=O,-1.6,0.66,-3.1,-8,i,-11,3
S=c1nc[nH]c2c1ncn2-c1ccc(Cl)cc1,x,0.71,3.9,x,i,2.2,-4
CCn1cc(C(=O)N2CCN(c3ccccn3)CC2)c(=O)c2cc(S(=O)(=O)N(C)C3CCCCC3)ccc21,2.7,0.72,5.3,-13,i,5.5,-12
Cc1ccccc1C(=O)Nc1ccccc1C(=O)NCc1ccccc1,-2.2,0.65,5.1,x,x,6.5,5
O=C(NNS(=O)(=O)c1ccc(C(=O)NC2CCCC2)cc1)c1ccncc1,-1.5,0.76,0.6,99*,i,2.4,-7
O=C(Nc1ccc(Cl)cc1)N1CCOC12CCCCC2,1.4,0.63,-8.2,9,x,7.9,7
Cn1nnc2cc(NC(=O)Nc3cccc(C(F)(F)F)c3)ccc21,7.3,0.7,-1.2,-10,i,-47,6
COCCN(CC(=O)NC1CCCCC1)C(=O)c1csnn1,0.1,0.7,1.3,x,x,2.1,-7
COc1c(F)c(F)c(C(=O)Nc2ccc(NC(=O)Cc3ccccc3)cc2)c(F)c1F,-4.5,0.71,2.1,-34,i,1.9,-4
Cc1ccc(-c2ccc(S(=O)(=O)NCC3CCCO3)cc2)cc1 (centres undefined),2.1,0.68,-0.5,-17,i,4.1,3
Cc1occc1C(=O)NNC(=O)C1CCCC1,4.3,0.69,3.5,15,i,0.0,-2
Cc1oc(-c2ccc(Cl)cc2)nc1CN1CCC(C(=O)NCc2cccs2)CC1,-1.9,0.7,3.5,x,x,3.8,3
CCN(CC)CCNC(=O)c1ccc(NC(=O)Cc2ccsc2)cc1,-5.3,0.66,-3.3,-1,i,2.9,-6
NC(=O)c1ccc(SCC(=O)NC2CCCCC2)c([N+](=O)[O-])c1,-4.5,0.73,-0.2,-5,i,3.1,x
Clc1ccccc1OCCCCN1CCNCC1,5.8,0.65,3.1,-4,i,3.6,3
Cc1cccc(NC2CCCCC2NS(=O)(=O)c2ccccc2)c1 (centres undefined),x,0.68,1.6,x,i,2.0,-3
CC(=O)NC(=S)Nc1ccc(N2CCOCC2)c(S(=O)(=O)Nc2cc(Cl)ccc2Cl)c1,-1.7,0.67,4.8,-7,i,1.8,-1
O=C(N=C1SC2CS(=O)(=O)CC2N1c1ccccc1Cl)C1CCCO1 (centres undefined),4.6,0.66,-0.1,5,i,1.1,6
Cc1ccc(S(=O)(=O)N2CCC(C(=O)OC(C)C(=O)N3CCOCC3)CC2)cc1 (centres undefined),2.5,0.64,1.4,-2,i,1.7,-3
C=CCN(CC=C)Cc1nc(N)nc(Nc2ccccc2C)n1,-0.6,0.61,-2.0,-2,i,0.2,6
CC(=O)Nc1cccc(C(=O)N/N=C/c2ccc(C)o2)c1,-2.6,x,-1.5,-3,x,x,8
Cc1ccccc1-n1c(=O)cc(N2CCc3ccccc32)[nH]c1=O,4.3,0.71,-2.6,0,i,4.8,2
O=C(CN1C(=O)NC2(CCCCC2)C1=O)Nc1ccc(N2CCOCC2)cc1,2.2,0.7,3.8,7,x,3.2,1
COc1cccc(COC(=O)C2CCN(S(=O)(=O)c3cccs3)CC2)c1OC,0.1,0.62,5.3,-64,i,-1.7,-3
CCOc1ccc(N(CC(=O)NCc2ccccc2)S(C)(=O)=O)cc1,-4.1,0.74,1.6,-2,x,-3.4,3
Cc1cccc(OCC(O)Cn2c(=N)n(CCN3CCCCC3)c3ccccc32)c1 (centres undefined),-0.3,0.66,-2.2,-12,x,2.7,21
CCN1CCN(S(=O)(=O)c2ccc(Cl)c(C(=O)N(C)C(c3ccccc3)c3ccccc3)c2)CC1,-4.2,0.61,0.3,-21,i,-0.1,1

# Compound profiles, as listed above:
# `Cc1ccccc1-n1c(=O)cc(N2CCc3ccccc32)[nH]c1=O` is listed as LANA-H2A inh: 4.3; Ecoli growth: 0.71; HNF4A DNA FP: -2.6; ALR inh: 0; FGF22 binding: i; UCH37 inh: 4.8; Beta2AR agonist: 2
# `NC(=O)c1ccc(SCC(=O)NC2CCCCC2)c([N+](=O)[O-])c1` is listed as LANA-H2A inh: -4.5; Ecoli growth: 0.73; HNF4A DNA FP: -0.2; ALR inh: -5; FGF22 binding: i; UCH37 inh: 3.1; Beta2AR agonist: x
# `O=C(N=C1SC2CS(=O)(=O)CC2N1c1ccccc1Cl)C1CCCO1` (centres undefined) is listed as LANA-H2A inh: 4.6; Ecoli growth: 0.66; HNF4A DNA FP: -0.1; ALR inh: 5; FGF22 binding: i; UCH37 inh: 1.1; Beta2AR agonist: 6

# Remaining list, next part:
SMILES,LANA-H2A inh,Ecoli growth,HNF4A DNA FP,ALR inh,FGF22 binding,UCH37 inh,Beta2AR agonist
CCOC(=O)CC(=O)CSc1nc2c(sc(=S)n2-c2ccccc2)c(=O)[nH]1,3.2,0.68,2.0,40,x,8.1,14
O=C(CC1C(=O)NCCN1C/C=C/c1ccccc1)NCCc1cnccn1 (centres undefined),-1.7,0.69,4.5,0,i,-4.8,-1
CCCc1nc(N)c(C#N)c(-c2cccnc2)c1CC,-0.3,0.72,-2.2,-4,i,2.2,4
COc1ccc(NC(=O)CCCNC(=O)c2ccc(Cl)cc2)cc1S(=O)(=O)N1CCOCC1,x,0.63,-1.4,x,i,0.7,8
O=S(=O)(NCC(c1ccco1)N1CCN(c2ccc(F)cc2)CC1)c1ccc2c(c1)OCCO2 (centres undefined),3.3,0.64,-4.5,1,x,1.3,-1
C[C@@H]1CN([C@@H](C)CO)C(=O)c2cccc(NC(=O)C3CCCCC3)c2O[C@@H]1CN(C)Cc1ccc(Cl)c(Cl)c1,1.0,0.77,16,-4,i,0.8,1
Cc1nnc(SCC(=O)Nc2ccc(Oc3ccccc3)cc2)n1N,-1.3,0.69,1.2,29,x,2.6,-8
CCc1ccc(C2NC(=O)c3ccccc3O2)cc1 (centres undefined),4.2,0.63,6.0,2,i,-1.0,-8
Cc1ccc(S(=O)(=O)C(C#N)c2nc3ccccc3nc2OCCO)cc1 (centres undefined),-0.2,0.68,3.7,0,i,4.4,7
COc1ccc2nc(N3CCCC3)[nH]c2c1,4.7,0.72,2.1,96*,x,4.8,9
O=C(Nc1ccc(F)cc1)Nc1nnc(-c2ccncc2)s1,0.1,0.62,-0.8,-3,x,2.5,5
CC(C)CN1CCC(=O)NC1=S,x,0.67,2.5,x,i,-0.1,-4
CS(=O)(=O)c1nc(-c2ccccc2)cc(C(F)(F)F)n1,-0.5,x,0.5,32,x,x,40
CC(C)CCn1c(=O)c2sccc2n2c(CCCC(=O)N3CCN(c4ccccn4)CC3)nnc12,-0.1,0.7,0.8,-2,i,3.5,-9
Cc1csc(NC(=O)Cc2ccccc2[N+](=O)[O-])n1,-5.4,0.7,3.3,1,i,2.4,-12
CC1Sc2ccc(C(=O)O)cc2NC1=O (centres undefined),2.2,0.64,-2.1,-1,x,1.7,-1
O=C(CSc1nc2[nH]ncc2c(=O)[nH]1)Nc1ccc(Cl)c(Cl)c1,-5.4,0.64,0.2,0,x,4.8,-3
COc1ccc(/C=C2\C(=O)NC(=S)N2C(=O)c2ccc(F)cc2)cc1,+,0.7,72*,3,x,-2.7,-28
Cc1nc2ccccn2c1C(=O)N/N=C/c1ccc(F)cc1,2.6,x,2.8,-1,i,x,-2
Cc1nc(NCCCn2ccnc2)c2ccccc2n1,-2.0,0.69,-2.3,4,x,2.6,-12
Cc1ccc(NC(=O)CN(C)CC(=O)Nc2ccc(F)c(Cl)c2)cc1,0.1,0.6,-1.6,-1,i,-1.3,-1
COc1cc(CNCCc2ccccc2)cc(Br)c1OCC(=O)Nc1ccccc1C,-7.2,0.63,-0.8,x,i,2.6,25
CC1(OC(=O)CCc2ccccc2)C(=O)C=C2C=C(c3ccc(C#N)cc3)N(C3CCCCC3)C=C2C1=O (centres undefined),-1.7,0.61,0.1,-33,i,6.8,3
CCCC(=O)Nc1c(C)n[nH]c1C,2.3,0.63,3.6,-29,x,0.0,-1
C[C@H](CO)N1C[C@H](C)[C@@H](CN(C)C(=O)Nc2ccc3c(c2)OCO3)Oc2c(NS(=O)(=O)c3ccccc3)cccc2C1=O,0.4,x,-3.0,-5,i,2.0,-1
CC(=O)n1cc([C@@H]2C=C(C(=O)N3CCN(Cc4ccccc4)CC3)O[C@H](OCc3ccc(CO)cc3)C2)c2ccccc21,1.9,x,5.2,2,i,6.9,8
O=C(CC(Nc1ccccc1)c1ccccc1)C1CC1 (centres undefined),1.0,0.67,-3.3,x,i,5.4,0
CC(=O)N1CCN(c2ccc(NCc3ccccc3)cc2)CC1,-2.5,0.71,1.0,99*,x,2.8,-1
COc1ccc(Cc2nnc(NC(=O)c3c(-c4ccccc4)noc3C)s2)cc1,-3.4,0.71,-3.3,-10,x,1.4,3
COc1cccc(NC(=O)Nc2cccc(C)n2)c1,0.8,0.69,4.1,-13,i,0.7,21
O=C(N/N=C/c1ccc(N2CCOCC2)cc1)c1ccncc1,3.4,x,-1.6,55,x,x,-1
Cc1ccc(CCNC(=O)C2CCN(S(=O)(=O)N3CCCCC3)CC2)cc1,1.5,0.66,5.2,-5,i,2.7,10
CCN=C1SC(C(=O)Nc2cc(Cl)cc(Cl)c2)CC(=O)N1CC (centres undefined),0.9,0.69,8.0,-12,i,2.3,9
CCCCNc1c(-c2ccc(-c3ccc(C(C)=O)cc3)c(OC)c2)nc2cnccn12,1.9,0.72,12,x,x,-55,-1
CCN(CC(=O)Nc1ccc(S(=O)(=O)N2CCCCC2)cc1)Cc1ccccc1,-1.5,0.63,-0.8,-2,i,0.6,-2
Cc1ccc(C(=O)NC(=S)NCCCN2CCOCC2)cc1,-9.6,0.72,0.0,2,x,3.5,2
Cc1csc(NC(=O)C2CCCCN2S(=O)(=O)c2ccccc2)n1 (centres undefined),3.6,0.71,4.7,0,i,2.9,4
CCn1c(N2CCN(S(=O)(=O)c3ccccc3C(F)(F)F)CC2)nc2ccccc21,0.5,0.68,0.4,2,x,1.5,-17
CSc1ncc2c(=O)[nH]c(-c3ccccc3)nc2n1,1.7,0.71,3.0,x,i,5.1,-6

# Only part of the results is shown; rates above refer to the full screens.
